# HPGD inh = blocks human HPGD enzyme activity | 150,000 compounds, 4.3% hits | purified HPGD, NADH fluorescence kinetic, PGE2 substrate | Potency, µM, inactives show at the highest dose activity change, negative = inhibition, hits mostly inhibitors; active = well fitted inhibition curve with a large enough effect (not every such curve was filed as active); inconclusive = small, poorly fitted or top-dose-only effect, or another doubt; inactive = no such curve, though single readings can be large or run the other way;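 also: top concentration of the series not given in the record; plate controls included wells without enzyme; inactives centre near -10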
# Target sequence (P15428 whole entry, looked up): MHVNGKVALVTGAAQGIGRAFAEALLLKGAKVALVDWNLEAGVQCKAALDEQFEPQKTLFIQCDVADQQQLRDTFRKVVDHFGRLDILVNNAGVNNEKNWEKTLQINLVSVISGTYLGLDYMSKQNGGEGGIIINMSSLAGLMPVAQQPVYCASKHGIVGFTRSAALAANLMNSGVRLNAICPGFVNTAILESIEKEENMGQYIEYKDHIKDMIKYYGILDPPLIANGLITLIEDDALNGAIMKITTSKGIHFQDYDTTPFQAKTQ
#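 NADH formation kinetics: reaction with 30 uM PGE2 and 1 mM NAD+ (final), 20 nM enzyme, Tris-HCl pH 8 with Tween 20, after 15 min compound preincubation at room temperature. Fluorescence change, last versus first of five reads.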
# Active calls of the source: *; ? = inconclusive. % is scaled to controls: 0 for no effect and ±100 for the full control effect; potency is read from the fitted curve at half-maximal effect. Some of the compounds tested. The share of hits here may be higher or lower than overall.
# A first look (4 entries):
SMILES,HPGD inh
COc1cccc(-c2cc(C(=O)O)[nH]n2)c1,-22.5%
CCCCCCCCNc1nc(Cl)nc(NCc2ccco2)n1,-5.0%
Cc1nn(Cc2ccccc2Cl)c(C)c1N,-0.4%
Cc1ccc(C(=O)N/C(=C/c2ccco2)C(=O)NCCc2c[nH]c3ccccc23)cc1C,-17.9%

# The listing, from the start:
SMILES,HPGD inh
COc1cccc(-c2cc(C(=O)O)[nH]n2)c1,-22.5%
CCCCCCCCNc1nc(Cl)nc(NCc2ccco2)n1,-5.0%
Cc1nn(Cc2ccccc2Cl)c(C)c1N,-0.4%
Cc1ccc(C(=O)N/C(=C/c2ccco2)C(=O)NCCc2c[nH]c3ccccc23)cc1C,-17.9%
CC(C)c1c(O)c2c(n(-c3ccccc3)c1=O)CCCC2,-5.9%
Cc1ccccc1N(C)C(=O)c1coc(=O)c2ccccc12,-7.6%
COc1cc2[nH]c(=S)n(CC3CCCO3)c(=O)c2cc1OC (stereo unspecified),-1.9%
O=C(CSc1nnc(-c2ccc(S(=O)(=O)N3CCOCC3)cc2)o1)c1ccccc1F,-11.4%
CCN(CC)c1ccc(/C=N/Nc2nc3ccccc3[nH]2)cc1,?
O=C(O)C1C2CCC(O2)C1C(=O)Nc1cccc(F)c1 (stereo unspecified),-6.7%
Cc1cc(C(=O)NCC(=O)OC(C(=O)Nc2cc(C(F)(F)F)ccc2Cl)c2ccccc2)ccc1[N+](=O)[O-] (stereo unspecified),-10.0%
CCOC(=O)Cc1csc(NC(=O)c2ccc(Br)s2)n1,-6.2%
COc1cc(Cl)cc(C#N)c1OCC(=O)O,?
COCc1nnc(NC(=O)CCCCCN2C(=O)c3ccccc3C2=O)s1,-7.6%
Nc1ccc(Sc2nnnn2-c2ccccc2)c(Cl)c1,-2.4%
O=C(NC1CCCC1)C1C2C=CC(C2)C1C(=O)N1CCOCC1 (stereo unspecified),1.5%
C=CCN1C(C(=O)c2ccccc2)=C(OC(=O)COc2ccccc2)c2ccccc2S1(=O)=O,-14.7%
COc1ccc(CNC(=O)C(c2cccs2)N(C(=O)c2csnn2)C2CC2)cc1 (stereo unspecified),-7.9%
N/C(=N\OC(=O)c1ccc(Cl)cc1Cl)c1ccc(Cl)cc1,5.01µM*
Cc1ccc(CN(Cc2ccc(C)o2)C(=S)NCC(=O)O)cc1,-13.8%
COc1ccccc1N1CCN(C(=O)c2ccc3nc(-c4ccco4)c(-c4ccco4)nc3c2)CC1,-17.3%
COc1cc(S(=O)(=O)NC2CCCC2)c(OC)cc1Cl,1.3%
CCOC(=O)c1cccc(NC(=O)CCn2nnc3ccccc32)c1,3.8%
CC(C)/C(=N\NC(=O)Nc1ccccc1)c1ccccc1,-7.7%
Nn1c(SCC(=O)NCc2ccccc2)nnc1C1CC1,-18.1%
Cc1cc(C)n(-c2cc(N3CCN(S(=O)(=O)c4ccc5ccccc5c4)CC3)ccc2[N+](=O)[O-])n1,-9.4%
CCCCNC(=O)CN(c1ccc(Cl)c(Cl)c1)S(C)(=O)=O,?
Cc1nn2c(NCC(C)C)c3c(nc2c1-c1ccccc1)CCC3,?
CS(=O)(=O)Nc1ccccc1C(=O)c1ccccc1,7.5%
O=c1[nH]ncn1-c1cccc(C(F)(F)F)c1,-9.5%
COC(=O)CSc1nsc(SCC(=O)OC)c1C#N,-9.4%
COc1cc([N+](=O)[O-])ccc1NC(=O)CCCOc1cccc(C)c1C,-16.0%
Cc1c(C(=O)Nc2cccc3cccnc23)oc2ccccc12,?
CCc1cc2c(=O)n(CC)c(SC(C)C(=O)Nc3c(C)n(C)n(-c4ccccc4)c3=O)nc2s1 (stereo unspecified),-8.8%
Cc1cc(OCCCC(=O)NC2=NCCS2)ccc1Cl,-7.0%
O=C(O)c1cc(-c2ccc3c(c2)OCO3)nc2ccccc12,-15.7%
COc1cccc2c(=O)n(CC(=O)Nc3ccccc3)ccc12,?
CCOC(=O)C1=C(C)N(C)C(C)=C(C(=O)OCC)C1c1ccccn1,-10.9%
CCn1c(Cc2c(C)[nH]c3ccccc23)nnc1SCC(=O)NCc1ccccc1,-5.7%
O=C(CCCCCn1c(=S)[nH]c2cc3c(cc2c1=O)OCO3)N1CCN(C(=O)c2ccco2)CC1,-10.5%
O=C(NCC1COc2ccccc2O1)C1CCN(S(=O)(=O)c2cccc3nsnc23)CC1 (stereo unspecified),-8.3%
CC(C)C(NCc1c(Cl)cccc1Cl)C(=O)O (stereo unspecified),-2.4%
O=C(Cn1c(S(=O)(=O)Cc2ccccc2)nc2ccccc21)N1CCCCC1,-17.9%
CCCSc1nnc2n(-c3ccccc3OC)c(=O)c3c4c(sc3n12)CCC4,-17.6%
CC(C)CNC(=O)C(=O)N/N=C/c1cccs1,-18.7%
COc1ccc(C(=O)N2CCOCC2)cc1Br,-16.3%
CCN(CC)S(=O)(=O)c1ccc2c(c1)c(=O)c(C(=O)NCCN(C)CCc1ccccc1)cn2C,-1.8%
Cc1ccc(C)c(OCCOCCN2CC(C)OC(C)C2)c1C (stereo unspecified),-8.8%
Cc1ccc(OCC(=O)N2CCCc3ccccc32)cc1,-21.5%
CCCCn1c(Oc2ccc(C(=O)OC)cc2)nc2c1c(=O)n(C)c(=O)n2C,-4.5%
COc1ccc(S(=O)(=O)n2nc(OC(=O)C3CCCCC3)cc2N)cc1,-11.8%
CC(C)CC(c1nnnn1CC1CCCO1)N1CCN(C2CCCC2)CC1 (stereo unspecified),-3.2%
Cc1sc(=NC(=O)c2ccco2)n(C)c1-c1ccc(Cl)cc1,-10.8%
Cc1noc(C)c1C(=O)NCCc1ccc(Cl)cc1,-6.6%
COc1cc2nc(NCCCN3CCN(C)CC3)n3nc(-c4ccccc4)nc3c2cc1OC,?
CCOc1ccc(OCC(=O)Nc2ccc(S(=O)(=O)Nc3cc(C)nc(C)n3)cc2)cc1,-3.8%
CCCCCCCCCCSc1n[nH]c(N)n1,?
Cc1cccc(N(CC(=O)NCc2ccco2)C(=O)CCC(=O)Nc2ccccn2)c1,-2.2%
CCN(CC)C(=O)CSc1ccccc1N,-19.1%
COC(=O)CNC(=O)COc1ccccc1,-2.1%

# Quoted from the listing (five entries):
SMILES,HPGD inh
COc1ccc(C(=O)N2CCOCC2)cc1Br,-16.3%
CCN(CC)S(=O)(=O)c1ccc2c(c1)c(=O)c(C(=O)NCCN(C)CCc1ccccc1)cn2C,-1.8%
Cc1ccc(C)c(OCCOCCN2CC(C)OC(C)C2)c1C (stereo unspecified),-8.8%
Cc1ccc(OCC(=O)N2CCCc3ccccc32)cc1,-21.5%
CCCCn1c(Oc2ccc(C(=O)OC)cc2)nc2c1c(=O)n(C)c(=O)n2C,-4.5%

# Continued:
SMILES,HPGD inh
O=C1CN(C(=O)OCc2ccccc2)c2ccccc2N1,-10.3%
CCOC(=O)N/N=C/c1cn(Cc2ccccc2Cl)c2ccccc12,-15.8%
Cc1cc2c(c(=O)n1C)C(C(C)C)C(C#N)=C(N)O2 (stereo unspecified),-6.2%
O=C(Nc1ccc2ccccc2c1)[C@@H]1C[C@H]1[C@@H](NP(=O)(c1ccccc1)c1ccccc1)c1ccccc1,?
CCC(=O)Oc1ccc2c(C)cc(=O)oc2c1C,?
C[C@H]1C[C@H]2[C@H]3CCC4=CC(=O)C=C[C@@]4(C)[C@]3(F)[C@H](O)C[C@]2(C)[C@@]1(O)C(=O)COP(=O)(O)O,-0.9%
O=[n+]1cc(-c2ccccc2)n([O-])c2c1CCCCC2,-12.4%
COC(=O)C/C=C/[C@@H](C)[C@@H](Cc1ccccc1Br)OC,-11.8%
O=C(CCn1cccc1)NCc1ccc2c(c1)OCO2,20µM*
Cc1c(C(=O)N2CCN(c3ccccc3F)CC2)sc2ncn(CC(=O)N3CCOCC3)c(=O)c12,-5.9%
COc1ccccc1NC1=C(C)C(=O)CC1,-4.8%
CCCCCCCCCCCCCCCC(=O)OCC(O)C1OC(=O)C(O)=C1O (stereo unspecified),-14.3%
CCN(CC)CCCNC(=O)Cn1ncn2cccc2c1=O,2.8%
CCc1nnc(NC(=O)CSc2nnc(-c3ccccc3O)n2-c2ccc(C)cc2)s1,-13.1%
c1ccc(N2CCN(c3c4c(nc5ncnn35)CCC4)CC2)cc1,-9.8%
Cc1ccc(N(C(C)C(=O)O)S(=O)(=O)c2c(C)n[nH]c2C)cc1 (stereo unspecified),-10.8%
COc1ccc(NC(=O)CN2CCN(CC(=O)Nc3ccccc3Cl)CC2)c(OC)c1,0.6%
O=c1[nH]c(NC2CCCCC2)c([N+](=O)[O-])c(=O)[nH]1,-17.4%
Cc1cc(C)cc(NC(=O)C(OC(=O)C2=COCCO2)c2ccccc2)c1 (stereo unspecified),-19.8%
CN(CCc1ccccn1)C(=O)CN(C)S(=O)(=O)c1ccc2c(c1)c(=O)n(C)c(=O)n2C,-1.8%
c1ccc(Cn2c(SCCN3CCOCC3)nnc2-c2cccnc2)cc1,-11.9%
CC(C)[C@H](NC(=O)OC(C)(C)C)c1nnc(SCc2cccc(F)c2)o1,-11.8%
O=C(O)c1cc(=O)[nH]c(=O)[nH]1,-5.5%
O=C(CCCCl)Oc1ccc2cc(-c3ccc4ccccc4n3)c(=O)oc2c1,?
CCN1CCN(c2ccc(NC(=O)c3cccc(OCc4ccccc4)c3)cc2)CC1,?
CC1=C(C(=O)Nc2ccccc2)C(c2ccc(O)cc2)N2C(=O)CSC2=N1 (stereo unspecified),-2.7%
COC(=O)c1ccc2c(=O)sc(N3CCC(C(N)=O)CC3)nc2c1,-11.9%
COc1ccccc1N1C(=O)c2ccccc2NC1c1ccncc1 (stereo unspecified),-25.9%
Cc1ccc(NC(=S)Nc2ccc3cn[nH]c3c2)cc1,-16.6%
COc1cc(OC)c(NC(=S)Nc2cccc(C)c2)cc1Cl,15.8µM*
COc1ccc(Cc2nnc(-c3cccc(C)c3)o2)cc1OC,17.8µM*
Cc1ccc2c(c1)cc(CN(Cc1ccc3c(c1)OCO3)S(=O)(=O)c1ccccc1)c1nnnn12,?
Cc1csc(NC(=O)Cn2cnnn2)n1,-11.3%
COC(=O)c1c(CCl)noc1C(=O)NC(C)C,-0.6%
COc1ccc(CCNc2nncc(=O)[nH]2)cc1OC,-11.5%
NC(=O)c1nnn(Cc2cc(Cl)c(C(=O)c3ccc(Cl)cc3)c(Cl)c2)c1N,-6.1%
CCOc1ccccc1NC(=O)C1CCCN(S(=O)(=O)c2c(C)[nH]c(=O)[nH]c2=O)C1 (stereo unspecified),-10.8%
C=CCNC(=O)COc1cc(C)ccc1C,-8.4%
COc1ccc(C2C(C(=O)c3ccc(C)o3)=C(O)C(=O)N2c2cc(C)on2)cc1OC (stereo unspecified),-17.9%
COc1ccc(CN(Cc2cc3cc(C)ccc3[nH]c2=O)C(=O)N(C)C)cc1,?
CCCCN1C2CCCC1CC(NC(=O)C1CCCCC1)C2 (stereo unspecified),-1.6%
Cc1ccc(-c2nn(-c3ccccc3)cc2C(=O)N2CCOCC2)cc1,-10.5%
CCCCSc1nc(C)cc(NC(=S)Nc2ccc(OC)cc2)n1,-6.7%
O=C(CSc1nnc(Cc2cc(=O)[nH]c(=O)[nH]2)n1-c1ccc(Cl)cc1)NC1CCCC1,-4.4%
CC(=O)NCCn1c(SCc2ccc(C)cc2)nc2ccccc2c1=O,-7.5%
CCCCNC(=O)Oc1cccc(N2CCCC2=O)c1,-18.4%
COc1ccc(-c2ccnc(-c3ccc(OCCCF)cc3)n2)cc1,-16.6%
C=CCN=C1SCC(=O)N1S(=O)(=O)c1ccc(C)cc1,-11.0%
C=CCOn1c(=O)c(-c2cccs2)[n+]([O-])c2ccccc21,-13.7%
NS(=O)(=O)c1ccc(NC(=O)COC(=O)c2c3c(nc4ccccc24)/C(=C\c2ccc4c(c2)OCO4)CCC3)cc1,?
C/C(=C\c1ccccc1)CN1CCC(C(=O)N2CCCCC2)CC1,14.1µM*
O=C(Nc1ccccc1OC(F)F)c1ccccc1,-9.3%
CCOC(=O)c1cccc(NC(=O)CSc2nnc(C3CCCCC3)n2CC)c1,-12.4%
C=C1c2ccccc2O[C@H](C(=O)OCC)[C@@H]1C1CCCCC1 (tested in a mixture with another compound),?
O=C(O)CSCc1ccc(Cl)cc1,0.5%
COCCN(C(=O)CC(C)(C)C)c1nnc(-c2cccnc2)s1,-3.9%
COC(=O)CCC(=O)OC1(C)C(=O)C=C2C=C(C3CC3)N(c3cccc(C#N)c3)C=C2C1=O (stereo unspecified),?
COc1ccc(NC(=O)NCCN2CCN(c3cccc(Cl)c3)CC2)cc1,-12.7%
O=C(Nc1ccccn1)c1cc2ccccc2o1,-4.1%
COc1ccc2c(c1)c(C(O)CN1CCC(Cc3ccccc3)CC1)c(C)n2C (stereo unspecified),-5.0%

# (next part)
SMILES,HPGD inh
O=C(CSc1cccc[n+]1[O-])Nc1cc2c(cc1Cl)C(=O)c1ccccc1C2=O,-19.1%
O=S(=O)(O)c1cc(N=[N+]([O-])c2cc(S(=O)(=O)O)c3ccccc3c2)cc2ccccc12,-18.9%
O=C(O)c1c(Cl)c(Cl)c(Cl)c(Cl)c1C(=O)Nc1ccc2cn[nH]c2c1,-7.9%
Cc1ccc(S(=O)(=O)N2CCN(C3CC(=O)N(CCc4ccccc4)C3=O)CC2)cc1C (stereo unspecified),-17.3%
CC(=O)c1cccc(NS(=O)(=O)c2c(C)n[nH]c2C)c1,-1.1%
CN1C(=O)C2(C(C#N)=C(N)N(c3ccc(Cl)cc3)C3=C2C(=O)CC(C)(C)C3)c2ccccc21 (stereo unspecified),-6.6%
CCCc1nn(CCc2ccccn2)c(N)c1CC,0.4%
CC1(C)CC(=O)C2=C(C1)N(c1ccccc1)C(N)=C(C#N)C2c1ccccc1 (stereo unspecified),-5.0%
Cc1c(NC(=O)c2ccc(N3CCCC3)c([N+](=O)[O-])c2)cccc1-c1nc2ccccc2s1,-19.6%
COc1cccc([C@@H]2Oc3ccc(OC)cc3C[C@H]2OC(=O)N[C@H]2CCCc3ccccc32)c1,-7.4%
CCCCn1c(SCc2ccccn2)nc2c1c(=O)n(C)c(=O)n2C,-11.7%
